Vaccinia Venus: vaccinia inhibition (Venus reporter) | Vaccinia virus Venus reporter expression, fluorescence | Potency, µM (series often up to 36.5 µM), without a hit: top-dose activity change, negative = inhibition, most hits filed as inhibitors | 330,000 compounds, 0.46% hits | AID 720580; active means well fitted inhibition curve with a large enough effect; inconclusive means small, poorly fitted or top-dose-only effect; inactive means no such curve, though single readings can be large or run the other way; tested in A549 cells; note: nearly all actives have a fitted effect of over 30% in size; inactives centre near -10
VACV mCherry inh: vaccinia inhibition (mCherry reporter) | Vaccinia virus mCherry reporter infection, fluorescence; about a quarter of the inactives have no number | Potency, µM (series often up to 36.5 µM), for inactives: top-dose activity change, negative = inhibition, hits mostly inhibitors | 310,000 compounds, 0.63% hits; active = well fitted inhibition curve with a large enough effect; inconclusive = small, poorly fitted or top-dose-only effect; inactive = no such curve, though single readings can be large or run the other way; tested in A549 cells; note: nearly all actives have a fitted effect of over 35% in size; inactives centre near -10
* marks the source's active call; other numbers are inactive results; i = inactive; ? = inconclusive; . = no result given; [ ] = another dose, or the depositor's remark. % is set by controls: 0 for no effect and ±100 for the full control effect; potency is the fitted concentration of half-maximal effect.

#	SMILES	Vaccinia Venus	VACV mCherry inh
1	CCC1(CC)C(=O)C2=C3C1[C@H](C(=O)OC)C=C(C(=O)OC)C[C@H]3[C@H]1C(=O)NC(=O)[C@H]1[C@H]2C (some centres not stated)	-3%	i
2	COc1ccc(N(C)S(=O)(=O)c2cccc(C(=O)NC3CCCCCC3)c2)cc1	-6%	-28%
3	C=C1C[C@@H]2C[C@@H]2CN(S(=O)(=O)c2ccc(C)cc2)[C@@H]1COCc1ccccc1	-11%	-8%
4	CCc1ccccc1NS(=O)(=O)c1ccc(SC)cc1	-12%	.
5	CCN1CCCC1CNC(=O)c1cnn(-c2nccc(-c3cccs3)n2)c1C1CC1 (configuration not stated)	-6%	-9%
6	COc1ccc(CNC(=O)CSc2nnc(C(F)(F)F)n2C)cc1	-4%	-4%
7	S=C1CCSc2ccc(Cl)cc2N1	-20%	-21%
8	NC(=O)c1ccc(-n2nnnc2SCC(=O)Nc2ccc(N3CCOCC3)c(Cl)c2)cc1	-16%	-4%
9	CCn1c(N)c(C(=O)NCCCOC)sc1=S	-3%	-4%
10	C=CCn1c(C)cc(C(=O)CSc2ccc(NC(C)=O)cc2)c1C	-10%	-17%
11	Cc1c(O)cc2n(c1=O)-c1ccc(Cl)cc1C2(C)C	6%	-2%
12	COC(=O)C1=C(c2cccc(OC)c2OC)C[C@@H]2CC[C@H]1N2C(=O)NCC1CC1	-6%	i
13	CCc1ccc2nc(N3CCN(C(=O)C4CC4)CC3)sc2c1	-11%	-15%
14	CNc1nc(OCC(F)(F)F)nc(OCC(F)(F)F)n1	-3%	?
15	O=C(O)c1cc(S(=O)(=O)N2CCN(C(=O)c3ccco3)CC2)c(Cl)cc1Cl	8%	6%
16	Cc1cc(C)cc(C(=O)NCCn2cc(SCC(=O)N3CCOCC3)c3ccccc32)c1	-3%	4%
17	Cc1cnc(C(=O)OC(C(=O)Nc2cc(C(F)(F)F)ccc2Cl)c2ccccc2)cn1 (configuration not stated)	-15%	-18%
18	[O-][n+]1c2c(nn1-c1ccccc1Cl)-c1nonc1CC2	-2%	-21%
19	C[C@@H]1CN([C@H](C)CO)C(=O)Cc2cc(NS(=O)(=O)c3cn(C)cn3)ccc2O[C@H]1CN(C)S(=O)(=O)c1ccc(Cl)cc1	-9%	i
20	CCOC(=O)C1CCN(C(=O)Nc2ccc3nccnc3c2)CC1	-15%	.
21	Cc1ccccc1Nc1nc(N)nc(CSc2nnc(-c3ccccc3)n2C)n1	-5%	-14%
22	O=C(CCCC(=O)N(CC(=O)NC1CCCC1)Cc1ccc2c(c1)OCO2)Nc1ccccn1	-10%	.
23	O=C(c1ccco1)N1N=C(c2ccc(Br)cc2)CC1(O)C(F)(F)F (configuration not stated)	-26%	-11%
24	COc1cccc(C2CC(c3ccc(C)cc3)n3ncnc3N2)c1 (configuration not stated)	11%	-5%
25	COc1ccc(N2CCN(C(=O)c3cc(C)on3)CC2)cc1	-24%	i
26	CCOC(=O)[C@]12CCCC=C1N(Cc1cccc3ccccc13)C(=O)[C@H](CC(=O)NCC13CC4CC(CC(C4)C1)C3)C2	-10%	-1%
27	O=S(=O)(c1cccc2c(I)cccc12)N1CCCNCC1	-12%	i
28	CCC(C)c1ccccc1OCCn1ccnc1 (configuration not stated)	-24%	i
29	COc1ccccc1/C=C\C=N\n1c(-c2ccc(Cl)cc2)n[nH]c1=S	-24%	i
30	O=C(CSc1ccccc1)N1CCCC(Nc2ccccc2)C1 (configuration not stated)	-5%[7.34 µM]	i[7.34 µM]

An excerpt of these results, with two lines to a compound.
Values run as follows: Vaccinia Venus | VACV mCherry inh
#22 O=C(CCCC(=O)N(CC(=O)NC1CCCC1)Cc1ccc2c(c1)OCO2)Nc1ccccn1
 : -10% | .
#29 COc1ccccc1/C=C\C=N\n1c(-c2ccc(Cl)cc2)n[nH]c1=S
 : -24% | i
#25 COc1ccc(N2CCN(C(=O)c3cc(C)on3)CC2)cc1
 : -24% | i
#28 CCC(C)c1ccccc1OCCn1ccnc1 (configuration not stated)
 : -24% | i
#23 O=C(c1ccco1)N1N=C(c2ccc(Br)cc2)CC1(O)C(F)(F)F (configuration not stated)
 : -26% | -11%
#27 O=S(=O)(c1cccc2c(I)cccc12)N1CCCNCC1
 : -12% | i

More results follow.
#	SMILES	Vaccinia Venus	VACV mCherry inh
31	COc1ccc(S(=O)(=O)N2CCC(n3c(C)nc4cccnc43)CC2)cc1Cl	0%	-5%
32	CC(C)NC(=O)CSc1ccccc1C(=O)N1CCN(S(=O)(=O)Cc2ccccc2)CC1	-12%	-15%
33	Cc1c(Cl)cccc1NC(=O)CSc1cc(-c2ccccc2)ncn1	-17%	-18%
34	O=C(N/N=C/c1ccc(OCc2ccc(F)cc2)cc1)c1ccccc1	-18%	?
35	CC(C)NS(=O)(=O)c1ccc2c(c1)NCC2	-15%	-13%
36	CC(C)COc1ccc(C(=O)OCC(=O)NCc2cccs2)cc1	?	?
37	O=C1C(Cc2ccc3[nH]ccc3c2)NC(=S)N1c1ccccc1 (configuration not stated)	-6%	-14%
38	Cc1nn(CC(=O)NC(=O)NC2CCCCC2C)c(=O)c(C#N)c1C (configuration not stated)	-16%	-4%
39	COc1ccc(-c2nnn(CC(=O)N(CC(=O)NC3CCCC3)c3ccccc3)n2)cc1OC	1%	i
40	Cc1scc(-c2n[nH]c(=S)n2C(C)c2ccccc2)c1C (configuration not stated)	-13%	-6%
41	COc1ccc2oc(=O)c(C(=O)C[n+]3cccc(C)c3)cc2c1	-5%	-6%
42	Cc1ccccc1C(=O)NN1C(=O)CSC1=S	-1%	2%
43	O=C(Nc1ccccc1)OCC1CCCN2CCCCC12 (configuration not stated)	-9%	i
44	CN1CCN(CCOC2c3ccccc3CSc3ccc(Cl)cc32)CC1 (configuration not stated)	?	?
45	COc1cc(/C=N/NC(=O)c2cc3ccccc3cc2O)ccc1OCCN1CCCCC1	0%	-22%
46	CCOC(=O)c1sc(=S)n(-c2ccc(C)cc2)c1SC	131%[activator]	0%
47	CN(C)S(=O)(=O)c1ccc(C(=O)OCC(=O)c2ccc3c(c2)NC(=O)CO3)cc1	5%	43%[activator]
48	COc1cc(O)cc2c1cc([N+](=O)[O-])c1c(C(=O)O)cc3c(c12)OCO3	-3%	-1%
49	COc1ccccc1N(CC(=O)Nc1ccc(Cc2ccncc2)cc1)S(=O)(=O)c1ccccc1	-14%	i
50	CCN(CC)S(=O)(=O)c1ccc2c(c1)N(CC(=O)Nc1cccc(C#N)c1)C(=O)CO2	-4%	-4%
51	Cn1c(C(=O)NCCCN2CCCC2=O)cc2c(=O)n(C)c3ccccc3c21	4%	-11%
52	COc1cccc(C2=NCCc3cc4c(cc32)OCO4)c1OC	-9%	-17%
53	CCN(CC(=O)NCc1ccc(F)cc1)CC(=O)NC1CCCC1	-16%	5%
54	Cc1nn(C)c(C)c1CNC(=O)c1cc2n(n1)C(C(F)(F)F)CC(c1cccs1)N2 (configuration not stated)	-23%	-19%
55	O=C1Nc2ccc(S(=O)(=O)NCc3ccccn3)c3cccc1c23	-14%	-21%
56	COC(=O)CC1C(=O)NCCN1C(=S)NC(=O)c1sc2ccccc2c1Cl (configuration not stated)	1%	-6%
57	COc1ccc(CNC(=O)COc2ccc(C)nc2[N+](=O)[O-])cc1	-11%	-2%
58	Cc1ccc(-c2ccc3c(c2)O[C@H](CN(C)C(=O)Nc2ccc(C(F)(F)F)cc2)[C@H](C)CN([C@H](C)CO)S3(=O)=O)cc1	-26%	-5%
59	COc1cccc(N2CCN(C(=O)c3cc(C)oc3C)CC2)c1	-25%	?
60	Cc1nc2ccc(C(=O)O)cc2c2c1CC(C)S2 (configuration not stated)	-16%	.
61	Cc1cccc(-n2c(CC3C(=O)Nc4ccc(C)cc43)nc3ccccc3c2=O)c1 (configuration not stated)	-4%	-6%
62	CNC(=S)NCCc1ccc(OC)c(OC)c1	-5%	-15%
63	Cc1nc2c(c(C)nn2-c2ccccc2)c(C)c1CCC(=O)NCCCOC(C)C	-19%	-9%
64	COc1ccc(C2CC(=O)c3c([nH]c(C(=O)OC4CCCCCC4)c3C)C2)cc1OC (configuration not stated)	-16%	-19%
65	O=C(CC1=NCCNC(c2ccccc2)C1)c1ccccc1O (configuration not stated)	-18%	-11%
66	CC(C)OC(=O)c1ccc(NCc2cc(O)ccc2O)cc1	-16%	?
67	C/C=C(/C)C(=O)O[C@@H]1[C@H](OC(=O)C=C(C)C)c2c(ccc3ccc(=O)oc23)OC1(C)C	?	-23%
68	CCS(=O)(=O)N1CCC[C@H]2CN3CCc4cc(OC)ccc4[C@@H]3C[C@@H]21	-13%	i
69	O=C(NC1CCCCC1)C(=S)N1CCOCC1	-24%	i
70	O=C(COc1ccccc1F)Nc1ccc(-c2nc3ccccc3s2)cc1	-13%	-16%
71	Cc1ccc(C)c(NC(=O)COc2cccc3c2CCN(Cc2ccccc2C)C3=O)c1	-13%	-16%
72	COc1ccccc1NC(=O)C1=C(C)Nc2nc(SCC(=O)c3ccc(C)cc3)nn2C1c1ccccc1C (configuration not stated)	-1%	-16%
73	Cc1ccc(S(=O)(=O)N(C)C)cc1NC(=O)COC(=O)CCC1CCCC1	-17%	-8%
74	Cc1cc(NC(=O)C2CC(=O)N(c3cccc(Cl)c3)C2)no1 (configuration not stated)	-18%	-9%
75	CC(=O)N1CCCc2cc(S(=O)(=O)Nc3ccc(Cl)cc3F)ccc21	-12%	-5%
76	O=C(NCC1(N2CCOCC2)CCCCC1)c1cnn(-c2nccc(-c3cccs3)n2)c1C1CC1	?	?
77	OCc1nc2ccccc2n1CCCCOc1ccccc1	-10%	-12%
78	CCOc1ccc(CNC(=O)c2cc3ccccn3n2)cc1OC	-8%	-15%
79	O=C(COC(=O)/C=C/c1ccc(OC(F)F)cc1)Nc1cccc(S(=O)(=O)N2CCCC2)c1	-14%	-14%
80	O=C(c1cc(-c2ccc(O)cc2)on1)N1CCCCCC1	2%	-26%

Carrying on:
#	SMILES	Vaccinia Venus	VACV mCherry inh
81	COc1ccccc1NC(=O)CN1CCN(S(=O)(=O)c2ccc(Br)cc2)CC1	0%	-13%
82	Cc1ccc(S(=O)(=O)N2C[C@H]3C(=O)C[C@@H](c4ccccc4)N(S(=O)(=O)c4ccccc4[N+](=O)[O-])[C@H]3C[C@H]2c2ccccc2)cc1	-5%	i
83	C[C@H]1Cn2cnc(C(=O)Nc3ccc(CNC(=O)OC(C)(C)C)cc3)c2C(=O)N1	-24%	?
84	Cc1ccccc1OCCCn1c(CCNC(=O)C2CCCCC2)nc2ccccc21	-10%[7.34 µM]	-14%[7.34 µM]
85	O=C(CCC1CCCCC1=O)c1ccccc1 (configuration not stated)	-25%	-29%
86	O=c1c(N2CCc3ccccc3C2)csc2ccccc12	-16%	-5%
87	CCOc1ccc(NC(=O)c2cc3c(=O)n(Cc4cccs4)ccc3nc2C)cc1	-12%	-10%
88	COC(=O)CCN(c1ccccc1)S(=O)(=O)c1ccc(OC)cc1	-24%	.
89	CCSc1nnc(C)n1-c1ccc(C(=O)O)cc1	1%	.
90	CCc1ccc(-n2c(=O)c3c4c(sc3n(Cc3ccc(F)cc3)c2=O)CCCC4)cc1	-7%	-3%
91	O=C(CN1CCCCC1)NC1CCc2cc3c(cc21)CCC3 (configuration not stated)	-13%	-15%
92	CS(=O)(=O)N(CC(=O)NCc1ccc2c(c1)OCO2)Cc1ccc(Cl)cc1	-19%	.
93	CCCCNC(=O)c1cc([N+](=O)[O-])[nH]n1	-7%	-10%
94	CC(Oc1ccccc1)C(=O)N1CCN=C1SCc1ccccc1 (configuration not stated)	-9%	-4%
95	CCOC(=O)N1CCN(S(=O)(=O)c2ccc(F)c(C(=O)Nc3cccc(Cl)c3C)c2)CC1	-14%	-7%
96	CC1(C(=O)NCc2ccccc2)CN(S(C)(=O)=O)CC(=O)N1C1CC1 (configuration not stated)	-9%	-15%
97	O=C(O)c1nccnc1C(=O)Nc1ccccc1N1CCOCC1	-9%[7.34 µM]	0%[7.34 µM]
98	CCOc1ccccc1NC(=O)C(NCC1CCCCC1)c1ccccc1 (configuration not stated)	-20%	-13%
99	C[C@@H](C(=O)O)[C@H]1C[C@]1(C)[C@H](NC(=O)OCc1ccccc1)c1ccccc1	5%	-8%
100	CCCC(=O)Nc1c(-c2ccccc2OC)c(=O)c2ccccc2n1C	-7%	-16%
101	COc1ccc(Cl)cc1NC(=O)CN(C)C(=O)Cn1cnnn1	-1%	-14%
102	COc1cccc(CNC(=O)c2c(OC)cc(=O)n3c2CCN(C(=O)C2CC24CCCCC4)CC3)c1 (configuration not stated)	-1%	0%
103	O=C(c1ccc2nc[nH]c2c1)N1CCN(c2cccc(C(F)(F)F)c2)CC1	-16%	-20%
104	C[C@@H](NC(=O)CN(c1ccccc1)S(=O)(=O)N(C)C)c1ccccc1	14%	-1%
105	COc1ccccc1-c1ccnc(-n2ncc(C(=O)NCc3ccncc3)c2C)n1	-18%	?
106	C[C@H](NC(=O)c1ccccc1)C(=O)Nc1nc(-c2ccccn2)cs1	-4%	-2%
107	CCN1CCC(=NNC(=O)c2ccc(C)c([N+](=O)[O-])c2)CC1	4%	-5%
108	COc1ccc(CN2CCN(C(C)C(=O)NC(C)c3ccc(F)cc3)CC2)cc1F (configuration not stated)	-2%	i
109	Cc1onc(-c2ccccc2)c1-c1nnc(COC(=O)c2ccc(F)cc2)o1	-13%	i
110	COC(=O)c1ccc2nc(-c3ccc4c(c3)OCO4)cn2c1	-4%	-1%
